Screens: PubChem BioAssay, several laboratories
HNF4A DNA FP = change in binding of human HNF4A to DNA, primary screen, biochemical, fluorescence polarization, FITC-DNA; 1 h; 360,000 tested, 0.3% active; activity change, % at 10 µM; AID 1224865, 2016; in the data active = activity change above about 30%, passing the limit was not always enough;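 note: controls were the assay level and a saturating level of protein; the project sought stronger binding though the title names inhibitors; some compounds called inactive have numbers as strong as hits; positive values seem to mean higher polarization but the record does not say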
E coli growth = E. coli growth inhibition, primary screen, OD600 | Escherichia coli growth, 23 h; stronger effect = lower value | 330,000 tested, 0.21% active | OD600 absorbance (test concentration not listed) | AID 1053175, 2014;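 active = OD600 absorbance below the run mean of sample wells minus 3.6 SD, in any replicate, cut at about 0.56 in these data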;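 note: stock transfer was 300 nL into about 60 µL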
B2AR ag = beta2AR agonists driving receptor internalization, primary screen, cell-based, FAP fluorogen, flow cytometry; 340,000 tested, 0.43% active; Beta-2 adrenergic receptor (Homo sapiens), P07550; response, % (concentration not given with the values); Am2.2-beta2AR cells; reference of the scale not given here;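 active = response above a set limit, near 3 SD of response in nonfluorescent compounds, cut at about 42% in these data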;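 note: stock transfer was 100 nL into about 11 µL; a reference agonist was the positive control; negative values mostly stem from fluorescent compounds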
Target sequence (P07550 whole entry, looked up): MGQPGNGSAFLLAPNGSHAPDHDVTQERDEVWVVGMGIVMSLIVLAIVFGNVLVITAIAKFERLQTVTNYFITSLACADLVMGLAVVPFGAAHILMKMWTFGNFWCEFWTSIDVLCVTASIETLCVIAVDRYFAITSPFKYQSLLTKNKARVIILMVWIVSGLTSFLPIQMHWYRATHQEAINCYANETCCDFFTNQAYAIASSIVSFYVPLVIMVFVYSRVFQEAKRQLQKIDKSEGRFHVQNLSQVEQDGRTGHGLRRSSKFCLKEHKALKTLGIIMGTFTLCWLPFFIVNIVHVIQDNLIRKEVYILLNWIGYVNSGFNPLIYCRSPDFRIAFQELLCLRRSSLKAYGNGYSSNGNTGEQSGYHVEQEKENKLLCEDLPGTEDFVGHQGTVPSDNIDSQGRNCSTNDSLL
FGF22 binding = binders of human FGF22 protein, primary screen, FGF22 synaptogenesis inhibitor project, biophysical, thermal shift, single point | recombinant FGF22 thermal shift, SYPRO orange fluorescence; percent of sucrose octasulfate shift, DMSO zero | calls only at 9.99 µM | 340,000 tested, 1.5% active | AID 651658, 2012;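 active = melting point raised past a set limit in the mean and every replicate; three in four hits are not shown here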
Ecoli rRNA inh = reduced GFP signal of wild-type E. coli, primary screen, bacterial rRNA inhibitor project, GFP/RFP fluorescence, OD600, single point. E. coli WT GFP vs humanized-ribosome RFP mutants, 24 h; stronger effect = lower value; DMSO median 0, no signal -100. AID 720706, 2013. GFP signal change (wild-type ribosome), % (test concentration not listed). 350,000 tested, 1.6% active;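 active = significant combined selectivity score with lowered wild-type GFP, culture density cut under 30%, mutant RFP and density less affected; inactive = any of these conditions unmet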; note: one replicate is shown; some compounds called inactive have numbers as strong as hits
UCH37 inh = inhibitors of human UCH37 deubiquitinase, primary screen, biochemical, Ub-AMC cleavage, fluorescence; Ubiquitin carboxyl-terminal hydrolase isozyme L5 (Homo sapiens), Q9Y5K5; 330,000 tested, 0.33% active; purified proteasome/UCH37; AID 588478, 2011; inhibition, % (test concentration not listed);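 active = mean of two replicates above 20%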;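 note: 0% = compound-free wells with enzyme and 100% = wells lacking proteasome; stock transfer was 100 nL into about 20 µL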
Target sequence (Q9Y5K5 whole entry, looked up): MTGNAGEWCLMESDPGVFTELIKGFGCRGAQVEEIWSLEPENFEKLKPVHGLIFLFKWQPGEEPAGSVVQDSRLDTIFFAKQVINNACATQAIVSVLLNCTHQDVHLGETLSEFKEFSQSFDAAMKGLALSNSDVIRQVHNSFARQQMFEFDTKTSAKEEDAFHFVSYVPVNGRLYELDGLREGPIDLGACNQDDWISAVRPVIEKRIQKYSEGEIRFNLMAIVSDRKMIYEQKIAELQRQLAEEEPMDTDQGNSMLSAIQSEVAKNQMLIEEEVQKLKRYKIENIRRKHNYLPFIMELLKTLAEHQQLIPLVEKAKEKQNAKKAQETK
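assay system = human UCH37 enzyme supplied as purified proteasome complex | amount = proteasome at 0.15 nM in the dispensed enzyme solution | schedule = 30 min compound-proteasome preincubation then 25 min substrate reaction, room temperature | measured by = fluorescence, ex 355 nm, em 460 nm | benchmarks = no-proteasome wells (full inhibition) and compound-free wells (no inhibition)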
ALR inh = inhibitors of human ALR sulfhydryl oxidase, primary screen, biochemical, H2O2 detection, HRP-luminol luminescence, single point; inhibition, % (concentration not given with the values); AID 485317, 2010; 290,000 tested, 3.8% active; FAD-linked sulfhydryl oxidase ALR (Homo sapiens), P55789; purified ALR, DTT oxidation;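 active = mean and each replicate at 75% or more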;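 note: stock transfer was 7.5 nL into about 7.5 µL; 0% = neutral wells and 100% = wells with inactivated enzyme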
Target sequence (P55789 whole entry, looked up): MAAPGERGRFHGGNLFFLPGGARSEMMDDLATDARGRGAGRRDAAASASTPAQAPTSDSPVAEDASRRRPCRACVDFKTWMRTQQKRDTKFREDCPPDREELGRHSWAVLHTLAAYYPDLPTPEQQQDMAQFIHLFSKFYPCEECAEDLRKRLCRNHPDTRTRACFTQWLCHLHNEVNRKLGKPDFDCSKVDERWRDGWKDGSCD
Ecoli rRNA inh OD600 = also measured in Ecoli rRNA inh; calls as there; OD600 change, %; measured here: OD600 growth;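 optical density of the mix in the first replicate; 0 = DMSO median and -100 = no signal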
Ecoli rRNA inh RFP = recorded beside Ecoli rRNA inh, whose call it bears; RFP signal change, %; measured here: RFP humanized mutant strains;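 first replicate; 0 = DMSO median and -100 = no signal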
Starred values were filed as active, the others as inactive; i = inactive; x = no result given.

SMILES | HNF4A DNA FP | E coli growth | B2AR ag | FGF22 binding | Ecoli rRNA inh | Ecoli rRNA inh OD600 | Ecoli rRNA inh RFP | UCH37 inh | ALR inh
O=C(/C=C/c1ccc(OCc2cccc(Cl)c2)cc1)N1CCOCC1 | -0.1 | 0.667 | 0.8 | i | -38.8 | -37.7 | 3.7 | -1.4 | -18.8
CCCCOC(=O)c1ccc(NC(=O)CSc2nnnn2C)cc1 | -0.2 | 0.729 | 0.2 | i | -0.1 | 2.9 | 1.2 | 1.0 | -2.1
Cn1ccnc1SCC(=O)Nc1ccc2c(c1)OCCO2 | 0.1 | 0.705 | -3.4 | i | 8.1 | 11.0 | 0.8 | 0.7 | 47.8
O=C(COC(=O)c1n[nH]c2ccccc12)NC(=O)NCc1ccco1 | 0.2 | 0.662 | 9.8 | x | x | x | x | -0.6 | -8.9
COc1ccc(-c2ccc(CNCCCN3CCOCC3)o2)cc1Cl | 0.5 | 0.601 | -6.0 | i | 7.0 | -2.8 | 1.7 | -0.5 | 20.0
CC(OC(=O)/C=C/c1ccc(Br)cc1)C(=O)N1CCOCC1 (stereo not drawn) | 4.1 | x | 9.9 | x | 6.1 | 4.8 | -0.1 | x | -33.3
CC(C)C[C@H]1COCCS(=O)(=O)N1Cc1ccc(Cl)c(Cl)c1 | 5.3 | x | 3.6 | i | -35.0 | -47.8 | -10.6 | 1.2 | -29.1
Cc1ccc(S(=O)(=O)NCC(=O)OCN2C(=O)c3ccccc3C2=O)cc1 | x | 0.776 | x | x | x | x | x | 1.2 | -0.9
O=C(Nc1ncccc1Cl)c1ccc2c(c1)OCCO2 | 1.9 | 0.652 | -0.5 | i | 8.4 | 5.7 | -1.5 | 2.4 | 12.0
CCC(C)N1CC(O)=C(c2nc3ccccc3[nH]2)C1=N (stereo not drawn) | -2.7 | 0.662 | 2.1 | i | 3.3 | -0.8 | 7.8 | 0.7 | 81.7*
O=C(O)C(CCC(C(=O)O)c1ccccc1)c1ccccc1 (stereo not drawn) | 3.1 | 0.682 | -4.4 | i | 10.9 | 17.2 | -4.6 | 1.7 | x
Cc1cc(C)nc(NNS(=O)(=O)c2c(F)cc(F)cc2Br)n1 | 1.8 | 0.664 | -4.6 | i | x | x | x | 1.2 | -5.1
O=C(CCC1CCCCC1)Nc1nnc(C(F)(F)F)s1 | 0.2 | 0.669 | 11.9 | i | 3.8 | -3.9 | -1.4 | 1.5 | x
CCN(CC(=O)Nc1ccc(NC(C)=O)cc1)C(=O)/C=C/c1cn(-c2ccccc2)nc1-c1ccc(C)cc1 | 0.4 | 0.721 | 14.6 | i | 2.4 | 6.7 | 0.7 | -3.2 | -2.6
O=C(Nc1ccccc1C(=O)Nc1cccnc1)c1ccccc1 | 0.3 | 0.659 | -12.8 | i | 0.1 | -4.8 | 2.4 | 4.2 | -2.6
COc1ccc(N2CCN(C(=O)COC(=O)CNC(=O)c3ccc(Cl)cc3Cl)CC2)cc1 | 4.5 | 0.694 | 3.1 | i | -0.4 | 0.1 | -1.4 | 2.4 | 24.5
CC(CNC(=O)CN1C(=O)CCSc2ccccc21)c1ccccc1 (stereo not drawn) | -2.5 | 0.699 | -6.5 | i | -2.2 | 0.0 | 3.6 | 3.5 | 28.6
COCCN(C(=O)CNC(=O)c1ccco1)C(C(=O)NC1CCCC1)c1cccc(OC)c1 (stereo not drawn) | 3.0 | 0.692 | 15.6 | i | 4.3 | 8.7 | 0.0 | 0.2 | x
Cc1ccc(-c2ccc(=O)n(CC(=O)NCCN(CC(C)C)CC(C)C)n2)cc1 | -3.3 | 0.682 | -14.3 | i | 1.0 | 7.7 | -2.2 | -3.8 | -2.4
CCS(=O)(=O)NCCc1ccc(OC)c(OC)c1 | -4.8 | 0.72 | -5.0 | x | x | x | x | -2.1 | -1.2
Fc1cccc2sc(Nc3nc4cc5c(cc4s3)OCCO5)nc12 | 4.7 | x | -0.1 | x | x | x | x | x | -0.3
CCOc1ccc(NC(=O)c2ccc(NC(=O)c3ccccc3Br)cc2)cc1 | -2.6 | 0.739 | 2.8 | i | 1.9 | 2.9 | -0.1 | -7.2 | x
COc1ccc(C2CC(c3ccc(C)o3)=NN2C(C)=O)cc1 (stereo not drawn) | -0.1 | 0.704 | -11.4 | i | 3.9 | 2.0 | -2.7 | -2.4 | -8.8
CCOC(=O)C1=C(O)C(=O)N(Cc2ccccc2)C1 | 5.4 | 0.66 | -4.2 | i | 11.7 | 4.2 | 2.5 | 2.0 | 45.2
COc1ccc(OC)c(Nc2nc(C3CC3)nc3c2nnn3Cc2ccccc2)c1 | 3.9 | 0.799 | -8.1 | x | x | x | x | -33.8 | -4.7
O=C(Nc1ccc(N2C(=O)c3cccc4cccc(c34)C2=O)cc1)c1ccc(N2CCCCC2)c([N+](=O)[O-])c1 | -2.0 | 0.749 | 2.8 | x | x | x | x | 5.1 | 3.0
CC(=O)Nc1cc(NC(C)=O)ncn1 | -1.2 | x | -8.4 | i | 2.8 | 7.9 | 2.5 | x | 4.2
CN(CC(=O)NCCc1ccccc1)CC(=O)Nc1cccc(F)c1 | 7.1 | 0.7 | -2.0 | i | 4.2 | 1.0 | 6.1 | 1.7 | 2.5
CC(=O)Nc1ccc(SCCC2CCCCN2C)cc1 (stereo not drawn) | 0.1 | 0.616 | 1.7 | i | 2.7 | 7.6 | -0.4 | 2.7 | x
O=C(/C=C/c1c(F)cccc1Cl)N1CCOCC1 | 8.1 | 0.727 | 5.8 | i | -2.8 | -1.0 | -0.3 | 8.8 | -6.0
c1nc(Nc2ccc(N3CCOCC3)cc2)c2ccsc2n1 | 3.6 | 0.642 | -5.0 | i | -3.4 | -3.3 | -1.0 | 4.3 | -2.8
CC(C)(C)c1cc(CCC(=O)NNC(=O)c2ccco2)cc(C(C)(C)C)c1O | 6.7 | 0.698 | 1.2 | i | -17.8 | -21.6 | 2.7 | 7.0 | x
Cc1ccc(CNS(=O)(=O)c2ccc(C)s2)cc1 | -1.8 | 0.69 | -4.2 | i | -10.7 | -6.2 | 0.5 | 1.7 | -2.9
CCOC(=O)c1nnc2c(Br)c(-c3ccccc3)nn2c1C | -0.5 | 0.681 | 1.7 | x | x | x | x | -1.0 | x
CS(=O)(=O)C1=NN2C(=N)/C(=C\c3ccc(OCCOc4ccccc4)cc3)C(=O)N=C2S1 | -2.3 | 0.681 | 8.3 | x | x | x | x | 3.1 | -5.4
CCN(CC)CC#CCC(O)(c1ccccc1)c1ccc(Br)cc1 (stereo not drawn) | 6.9 | 0.625 | 7.2 | i | -18.4 | -26.9 | 1.1 | 1.3 | -2.0
O=C(CN1CCN(S(=O)(=O)c2ccc(Br)cc2)CC1)Nc1ccccc1C(=O)c1ccccc1 | 0.2 | 0.75 | 0.4 | x | x | x | x | 1.1 | -7.8
CC(C)CCOc1ccc(C(=O)N2CCN(c3ncccn3)CC2)cc1 | -0.3 | 0.661 | -14.8 | i | -13.6 | -9.2 | -2.3 | -2.2 | -28.6
Cc1ccc(NCc2nnc3n2CCCCC3)c(C)c1 | 5.0 | 0.706 | -1.7 | i | 19.6 | 12.3 | 0.7 | 1.1 | 98.7*
C[C@@H]1C=C[C@](Cc2ccccc2)(C(=O)NCC2CC2)N1C(=O)c1ccccc1 | -2.5 | x | -5.6 | i | -21.1 | -25.9 | -4.0 | 5.4 | 2.1
O=C(Nc1ccccc1C(=O)NCc1ccco1)Nc1cccc2ccccc12 | -2.2 | 0.725 | 5.3 | i | x | x | x | -8.9 | x
CCN(CC)C(=O)CP(=O)(c1ccccc1)c1ccccc1 | 3.1 | 0.769 | -0.6 | x | x | x | x | 3.7 | x
O=C(CCNC(=O)N1CC(=O)Nc2ccccc21)NCc1cccc(Cl)c1 | 3.5 | 0.653 | 2.0 | i | 1.8 | 2.0 | -1.2 | -0.5 | -26.8
Cc1ccc(N(C(=O)c2cccs2)C2C=CS(=O)(=O)C2)cc1 (stereo not drawn) | -1.3 | 0.745 | -4.9 | i | 0.1 | -4.3 | 0.9 | 0.6 | 95.7*
COc1ccc(-c2nnc(C3CCN(S(=O)(=O)c4ccccc4)CC3)o2)cc1 | 4.9 | 0.789 | -19.6 | x | x | x | x | 4.6 | 9.7
CC1(c2nnc(-c3cccc(Cl)c3)o2)CC(c2cccc(F)c2)=NO1 (stereo not drawn) | 2.2 | 0.712 | 2.7 | i | 0.5 | -2.8 | 2.7 | 0.0 | -8.7
COc1ccc(C(CNc2ccc(S(=O)(=O)N3CCN(C)CC3)cc2[N+](=O)[O-])N(C)C)cc1 (stereo not drawn) | -0.5 | 0.683 | 8.0 | i | -1.5 | 3.6 | -0.5 | 2.3 | x
COc1ccc(C2C(C(=O)NCc3ccccn3)c3ccccc3C(=O)N2C)cc1OC (stereo not drawn) | 0.1 | 0.67 | -2.3 | x | x | x | x | 4.3 | -4.0

11 structures already listed, ordered by SMILES length, largest number first.
SMILES | HNF4A DNA FP | E coli growth | B2AR ag | FGF22 binding | Ecoli rRNA inh | Ecoli rRNA inh OD600 | Ecoli rRNA inh RFP | UCH37 inh | ALR inh
O=C(Nc1ccc(N2C(=O)c3cccc4cccc(c34)C2=O)cc1)c1ccc(N2CCCCC2)c([N+](=O)[O-])c1 | -2.0 | 0.749 | 2.8 | x | x | x | x | 5.1 | 3.0
O=C(CN1CCN(S(=O)(=O)c2ccc(Br)cc2)CC1)Nc1ccccc1C(=O)c1ccccc1 | 0.2 | 0.75 | 0.4 | x | x | x | x | 1.1 | -7.8
CC(C)(C)c1cc(CCC(=O)NNC(=O)c2ccco2)cc(C(C)(C)C)c1O | 6.7 | 0.698 | 1.2 | i | -17.8 | -21.6 | 2.7 | 7.0 | x
Cc1ccc(S(=O)(=O)NCC(=O)OCN2C(=O)c3ccccc3C2=O)cc1 | x | 0.776 | x | x | x | x | x | 1.2 | -0.9
COc1ccc(OC)c(Nc2nc(C3CC3)nc3c2nnn3Cc2ccccc2)c1 | 3.9 | 0.799 | -8.1 | x | x | x | x | -33.8 | -4.7
CCOc1ccc(NC(=O)c2ccc(NC(=O)c3ccccc3Br)cc2)cc1 | -2.6 | 0.739 | 2.8 | i | 1.9 | 2.9 | -0.1 | -7.2 | x
CC(OC(=O)/C=C/c1ccc(Br)cc1)C(=O)N1CCOCC1 (stereo not drawn) | 4.1 | x | 9.9 | x | 6.1 | 4.8 | -0.1 | x | -33.3
CC(CNC(=O)CN1C(=O)CCSc2ccccc21)c1ccccc1 (stereo not drawn) | -2.5 | 0.699 | -6.5 | i | -2.2 | 0.0 | 3.6 | 3.5 | 28.6
COc1ccc(C2CC(c3ccc(C)o3)=NN2C(C)=O)cc1 (stereo not drawn) | -0.1 | 0.704 | -11.4 | i | 3.9 | 2.0 | -2.7 | -2.4 | -8.8
O=C(Nc1ccccc1C(=O)Nc1cccnc1)c1ccccc1 | 0.3 | 0.659 | -12.8 | i | 0.1 | -4.8 | 2.4 | 4.2 | -2.6
CC(=O)Nc1cc(NC(C)=O)ncn1 | -1.2 | x | -8.4 | i | 2.8 | 7.9 | 2.5 | x | 4.2

These rows are one share of the data; count on the stated rates, not on these rows.
